Screens: PubChem BioAssay, Broad Institute
Vaccinia inh: blocks a specific stage of Vaccinia orthopoxvirus infection, primary screen, cell-based, single point | 0.01% of 89,000 active | activity change (mCherry), % (concentration not given with the values) | Vaccinia-infected cells, mCherry/Venus stage reporter fluorescence; stronger effect = lower value; some inactives read as strong as hits;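 active = mCherry past -33% and 40 or more points under the early reporter, replicates agreeing; inconclusive = past -33% without that gap or agreement; tested in A549 cells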;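 note: scaled between vehicle wells and reference inhibitor wells; 23 nL library stock went into each well; one replicate is shown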
Vaccinia inh Venus: also measured in Vaccinia inh; calls as there; activity change (Venus), %; measured here: Venus reporter, other viral stage;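 negative = less Venus signal; first of two replicates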
* hit, by the source's call. An excerpt; rates above refer to the full screens.

How did COc1ccccc1NC(=O)N(C)C[C@H]1OCc2ccccc2-c2ccccc2C(=O)N([C@H](C)CO)C[C@H]1C do in these assays?
Vaccinia inh: 18; Vaccinia inh Venus: 16

What do the screens show for `O=C(C[C@H]1CC[C@@H](NS(=O)(=O)c2ccc(F)cc2)[C@@H](CO)O1)NCc1ccncn1`?
Vaccinia inh: 4; Vaccinia inh Venus: 1

What do the screens show for `CC(=O)N1[C@@H]2Cn3c(ccc(C4=CCCC4)c3=O)[C@H]1[C@@H](C(=O)N[C@@H](C)c1ccccc1)[C@@H]2CO`?
Vaccinia inh: 16; Vaccinia inh Venus: 2

What do the screens show for `O=C(Nc1ccc2c(c1)[C@H]1C[C@H](CC(=O)N3CCc4ccccc4C3)O[C@H](CO)[C@H]1O2)Nc1ccccc1F`?
Vaccinia inh: inconclusive

Results for C[C@H]1CN([C@@H](C)CO)C(=O)c2cc(C#CC3(O)CCCC3)cnc2O[C@H]1CN(C)S(=O)(=O)c1ccccc1 ?
Vaccinia inh: 5; Vaccinia inh Venus: 0

How did C[C@@H]1CN([C@H](C)CO)C(=O)c2cc(NS(C)(=O)=O)ccc2O[C@@H](C)CCCCO[C@@H]1CN(C)S(=O)(=O)c1ccccc1 do in these assays?
Vaccinia inh: 32; Vaccinia inh Venus: 25

How did COCCNC(=O)C[C@@H]1CC[C@@H]2[C@H](COc3ccc(NS(=O)(=O)c4ccc(Cl)cc4)cc3C(=O)N2C)O1 do in these assays?
Vaccinia inh: 14; Vaccinia inh Venus: 12

Results for C[C@@H]1CN([C@@H](C)CO)C(=O)c2cc(C#CC3(O)CCCC3)cnc2O[C@H]1CN(C)S(C)(=O)=O ?
Vaccinia inh: 27; Vaccinia inh Venus: 22

What do the screens show for `C[C@H](CO)N1C[C@H](C)[C@@H](CN(C)Cc2ccncc2)Oc2ccc(NS(=O)(=O)c3cn(C)cn3)cc2CC1=O`?
Vaccinia inh: 2; Vaccinia inh Venus: 1

How did Cc1noc(C)c1NC(=O)N(C)C[C@@H]1OCCCC[C@@H](C)Oc2ccc(NC(=O)Cc3ccccc3)cc2C(=O)N([C@H](C)CO)C[C@@H]1C do in these assays?
Vaccinia inh: 15; Vaccinia inh Venus: 5

How did COc1ccc2c3c(n(C)c2c1)[C@@H](CO)N(C(=O)CC1CC1)CC31CN(Cc2ccncc2)C1 do in these assays?
Vaccinia inh: -3; Vaccinia inh Venus: -1

How did CC(C)CC#Cc1ccc([C@H]2[C@@H](CO)N3C(=O)CN(C(=O)NC4CCCCC4)C[C@@H]23)cc1 do in these assays?
Vaccinia inh: inconclusive

What do the screens show for `COCCNC(=O)C[C@H]1C[C@H]2c3cc(NC(=O)NC4CCCC4)ccc3O[C@H]2[C@@H](CO)O1`?
Vaccinia inh: 9; Vaccinia inh Venus: 1

What do the screens show for `C[C@@H]1CN([C@H](C)CO)C(=O)c2cc(NC(=O)Cn3cnnn3)ccc2O[C@H]1CN(C)C(=O)Nc1ccccc1`?
Vaccinia inh: 16; Vaccinia inh Venus: 5

How did C[C@H](CO)N1C[C@H](C)[C@H](CN(C)C(=O)CCC(F)(F)F)OCCCC[C@H](C)Oc2ccc(NS(=O)(=O)c3ccc(F)cc3)cc2C1=O do in these assays?
Vaccinia inh: inconclusive

How did O=C(C[C@@H]1C[C@@H]2c3cc(NC(=O)C4CCC4)ccc3O[C@@H]2[C@H](CO)O1)NCCN1CCCCC1 do in these assays?
Vaccinia inh: -2; Vaccinia inh Venus: 2

How did N#C[C@H]1[C@H](c2ccc(C#CCC3CCCC3)cc2)[C@@H](CO)N1C(=O)c1ccccn1 do in these assays?
Vaccinia inh: -5; Vaccinia inh Venus: -11

What do the screens show for `CCN1[C@@H]2c3ccc(-c4ccccc4)c(=O)n3C[C@H]1[C@H](CO)[C@H]2C(=O)NCCCN1CCOCC1`?
Vaccinia inh: 2; Vaccinia inh Venus: 11

What do the screens show for `CN(C)C(=O)c1ccc(-c2ccc([C@@H]3[C@@H](CO)N4CCCCN(S(C)(=O)=O)C[C@H]34)cc2)cc1`?
Vaccinia inh: 34; Vaccinia inh Venus: 7

How did O=C(C[C@H]1CC[C@H]2[C@@H](COC[C@H](O)CN2C(=O)Cc2ccccc2)O1)NC1CCCC1 do in these assays?
Vaccinia inh: -6; Vaccinia inh Venus: -8

How did C[C@H]1CCCCO[C@@H](CN(C)C(=O)Nc2ccc(C(F)(F)F)cc2)[C@@H](C)CN([C@@H](C)CO)C(=O)c2cc(NC(=O)C3CCCCC3)ccc2O1 do in these assays?
Vaccinia inh: 2; Vaccinia inh Venus: -9

Results for CCCNC(=O)N(C)C[C@@H]1Oc2ncc(C#CC3CCCCC3)cc2C(=O)N([C@H](C)CO)C[C@@H]1C ?
Vaccinia inh: inconclusive

What do the screens show for `CN(C)CC(=O)N[C@H]1CC[C@H](CC(=O)NCCN2CCCCC2)O[C@H]1CO`?
Vaccinia inh: 16; Vaccinia inh Venus: 28

What do the screens show for `N#C[C@@H]1[C@H](c2ccccc2-c2ccccc2)[C@@H](CO)N1C(=O)NC1CCCCC1`?
Vaccinia inh: -14; Vaccinia inh Venus: -4

Results for O=C(Nc1ccc(F)cc1)Nc1ccc2c(c1)[C@@H]1C[C@@H](CC(=O)N3CCOCC3)O[C@@H](CO)[C@@H]1O2 ?
Vaccinia inh: 4; Vaccinia inh Venus: 6

How did O=C(NCC1CC1)[C@@H]1[C@@H](CO)[C@@H]2Cn3c(ccc(C4=CCCC4)c3=O)[C@H]1N2CCC(F)(F)F do in these assays?
Vaccinia inh: 15; Vaccinia inh Venus: 12

What do the screens show for `CN1c2ccc(-c3ccc(F)cc3)cc2[C@@H]2[C@@H](CCN2C(=O)Cc2ccccn2)[C@H]1CO`?
Vaccinia inh: -16; Vaccinia inh Venus: -13

How did C[C@@H]1CCCCO[C@H](CN(C)Cc2ccncc2)[C@H](C)CN([C@H](C)CO)C(=O)c2cc(N(C)C)ccc2O1 do in these assays?
Vaccinia inh: 11; Vaccinia inh Venus: 11

How did Cc1noc(C)c1NC(=O)Nc1ccc2c(c1)C(=O)N([C@@H](C)CO)C[C@@H](C)[C@H](CN(C)S(=O)(=O)c1cn(C)cn1)OCCCC[C@@H](C)O2 do in these assays?
Vaccinia inh: 3; Vaccinia inh Venus: 1

Results for CCCc1cn(CC[C@H]2CC[C@H](NC(=O)C3CCOCC3)[C@H](CO)O2)nn1 ?
Vaccinia inh: 7; Vaccinia inh Venus: 9

Looked up one by one from the entries so far:
How did N#C[C@H]1[C@H](c2ccc(C#CCC3CCCC3)cc2)[C@@H](CO)N1C(=O)c1ccccn1 do in these assays?
Vaccinia inh: -5; Vaccinia inh Venus: -11

Results for O=C(Nc1ccc(F)cc1)Nc1ccc2c(c1)[C@@H]1C[C@@H](CC(=O)N3CCOCC3)O[C@@H](CO)[C@@H]1O2 ?
Vaccinia inh: 4; Vaccinia inh Venus: 6

Carrying on:
What do the screens show for `Cc1ccc(S(=O)(=O)Nc2ccc3c(c2)C(=O)N([C@H](C)CO)C[C@H](C)[C@@H](CN(C)C(=O)Nc2ccc4c(c2)OCO4)OCCCC[C@H](C)O3)cc1`?
Vaccinia inh: -1; Vaccinia inh Venus: -6

What do the screens show for `COc1ccc(NC(=O)Nc2ccc3c(c2)CC(=O)N([C@@H](C)CO)C[C@H](C)[C@@H](CN(C)C(=O)Nc2ccc4c(c2)OCO4)O3)cc1`?
Vaccinia inh: 11; Vaccinia inh Venus: 7

What do the screens show for `O=C(N[C@@H]1CC[C@@H](CC(=O)N2CCC(Cc3ccccc3)CC2)O[C@@H]1CO)c1cnccn1`?
Vaccinia inh: 2; Vaccinia inh Venus: -2

What do the screens show for `C[C@H]1CCCCO[C@H](CN(C)C)[C@@H](C)CN([C@@H](C)CO)C(=O)c2cc(NC(=O)NC3CCCCC3)ccc2O1`?
Vaccinia inh: -6; Vaccinia inh Venus: -4

How did Cn1cnc(CCNC(=O)C[C@H]2CC[C@@H]3[C@H](COC[C@@H](O)CN3C(=O)Nc3ccccc3)O2)c1 do in these assays?
Vaccinia inh: -4; Vaccinia inh Venus: -5

Results for CC(=O)N1CC2(C1)[C@H](c1ccc(-c3cccc(F)c3)cc1)[C@H](CO)N2CC1CCOCC1 ?
Vaccinia inh: -31; Vaccinia inh Venus: -17

Results for C[C@@H]1CN([C@@H](C)CO)C(=O)c2cc(NC(=O)Nc3ccc4c(c3)OCO4)ccc2O[C@@H]1CN(C)S(=O)(=O)c1ccccc1 ?
Vaccinia inh: -1; Vaccinia inh Venus: -9

Results for C[C@@H]1CCCCO[C@H](CN(C)Cc2ccccc2)[C@H](C)CN([C@@H](C)CO)C(=O)c2cc(NC(=O)Nc3cccc4ccccc34)ccc2O1 ?
Vaccinia inh: inconclusive

What do the screens show for `O=C(C1=C[C@@H](C2CC2)C[C@@H](OCCCCO)O1)N1CCOCC1`?
Vaccinia inh: 20; Vaccinia inh Venus: 25

How did CC(=O)N[C@@H]1CC[C@H](CCNC(=O)C2CC2)O[C@H]1CO do in these assays?
Vaccinia inh: 6; Vaccinia inh Venus: 13

What do the screens show for `C[C@@H]1CCCCO[C@H](CN(C)S(=O)(=O)c2cccs2)[C@H](C)CN([C@@H](C)CO)C(=O)c2cc(N(C)C)ccc2O1`?
Vaccinia inh: -19; Vaccinia inh Venus: -10

How did CN1C(=O)c2cc(NC(=O)NCc3ccccc3)ccc2OC[C@H]2O[C@H](CC(=O)O)CC[C@@H]21 do in these assays?
Vaccinia inh: 6; Vaccinia inh Venus: 17

What do the screens show for `C[C@H]1CN([C@@H](C)CO)C(=O)c2cccc(NC(=O)Nc3ccc(F)cc3)c2O[C@H]1CN(C)C(=O)Nc1ccccc1`?
Vaccinia inh: inconclusive

How did CCC(=O)N(C)C[C@@H]1Oc2cc(C#Cc3ccccc3)ccc2S(=O)(=O)N([C@H](C)CO)C[C@@H]1C do in these assays?
Vaccinia inh: inconclusive

What do the screens show for `O=C(NCc1cc(F)cc(F)c1)[C@@H]1[C@@H](CO)[C@@H]2Cn3c(cccc3=O)[C@H]1N2C(=O)c1ccccn1`?
Vaccinia inh: 16; Vaccinia inh Venus: 3

Results for Cc1ccc(S(=O)(=O)N(C)C[C@H]2Oc3cc(Br)ccc3S(=O)(=O)N([C@@H](C)CO)C[C@@H]2C)cc1 ?
Vaccinia inh: inconclusive

What do the screens show for `CO[C@H]1CN(C)C(=O)c2ccc(NC(=O)Nc3cccc(Cl)c3)cc2OC[C@H](C)N(C(=O)Nc2c(C)noc2C)C[C@@H]1C`?
Vaccinia inh: -10; Vaccinia inh Venus: -9

Results for COCC(=O)N1CCCCN2[C@H](CO)[C@@H](c3ccc(-c4ccc(C)cc4)cc3)[C@@H]2C1 ?
Vaccinia inh: 4; Vaccinia inh Venus: -21

What do the screens show for `O=C(Nc1ccccc1F)N[C@@H]1CC[C@H](CCNC(=O)C2CCCCC2)O[C@H]1CO`?
Vaccinia inh: 2; Vaccinia inh Venus: 2

What do the screens show for `Cc1noc(C)c1NC(=O)N(C)C[C@@H]1OCCCC[C@@H](C)Oc2ccc(NC(=O)NC3CCCCC3)cc2C(=O)N([C@@H](C)CO)C[C@H]1C`?
Vaccinia inh: 30; Vaccinia inh Venus: 8

What do the screens show for `CO[C@H]1CN(C)C(=O)c2ccc(NC(=O)C3CC3)cc2OC[C@H](C)N(Cc2ccncc2)C[C@H]1C`?
Vaccinia inh: 19; Vaccinia inh Venus: 15

Results for COc1ccccc1S(=O)(=O)N1C[C@@H]2N[C@H](C1)C2c1ccc(-c2ccccc2)cc1 (stereo partly drawn) ?
Vaccinia inh: inconclusive; Vaccinia inh Venus: 0

How did C[C@@H]1CN([C@@H](C)CO)S(=O)(=O)c2ccc(C#CCC3CCCC3)cc2O[C@@H]1CN(C)C(=O)c1ccccn1 do in these assays?
Vaccinia inh: inconclusive

Results for CN(C)C(=O)C[C@@H]1CC[C@@H]2[C@@H](COc3ccc(NC(=O)C4CCOCC4)cc3C(=O)N2C)O1 ?
Vaccinia inh: 14; Vaccinia inh Venus: 2

How did C[C@@H]1CN([C@H](C)CO)C(=O)c2cc(NC(=O)Nc3ccccc3)ccc2O[C@H]1CN(C)S(=O)(=O)c1ccc(Cl)cc1 do in these assays?
Vaccinia inh: -8; Vaccinia inh Venus: -6

How did O=C(Nc1ccccc1)N1C[C@@H]2N[C@H](C1)C2c1ccc(-c2ccccc2F)cc1 (stereo partly drawn) do in these assays?
Vaccinia inh: inconclusive

Results for C[C@@H]1CN([C@H](C)CO)C(=O)c2cccc(N(C)C)c2O[C@@H]1CN(C)C ?
Vaccinia inh: -9; Vaccinia inh Venus: -2

Arranged by length of the SMILES (low to high): seven of the compounds above.
How did O=C(Nc1ccccc1)N1C[C@@H]2N[C@H](C1)C2c1ccc(-c2ccccc2F)cc1 (stereo partly drawn) do in these assays?
Vaccinia inh: inconclusive

Results for COCC(=O)N1CCCCN2[C@H](CO)[C@@H](c3ccc(-c4ccc(C)cc4)cc3)[C@@H]2C1 ?
Vaccinia inh: 4; Vaccinia inh Venus: -21

What do the screens show for `CO[C@H]1CN(C)C(=O)c2ccc(NC(=O)C3CC3)cc2OC[C@H](C)N(Cc2ccncc2)C[C@H]1C`?
Vaccinia inh: 19; Vaccinia inh Venus: 15

Results for CN(C)C(=O)C[C@@H]1CC[C@@H]2[C@@H](COc3ccc(NC(=O)C4CCOCC4)cc3C(=O)N2C)O1 ?
Vaccinia inh: 14; Vaccinia inh Venus: 2

Results for Cc1ccc(S(=O)(=O)N(C)C[C@H]2Oc3cc(Br)ccc3S(=O)(=O)N([C@@H](C)CO)C[C@@H]2C)cc1 ?
Vaccinia inh: inconclusive

How did C[C@@H]1CN([C@H](C)CO)C(=O)c2cc(NC(=O)Nc3ccccc3)ccc2O[C@H]1CN(C)S(=O)(=O)c1ccc(Cl)cc1 do in these assays?
Vaccinia inh: -8; Vaccinia inh Venus: -6

What do the screens show for `Cc1noc(C)c1NC(=O)N(C)C[C@@H]1OCCCC[C@@H](C)Oc2ccc(NC(=O)NC3CCCCC3)cc2C(=O)N([C@@H](C)CO)C[C@H]1C`?
Vaccinia inh: 30; Vaccinia inh Venus: 8
